T cruzi repl – blocks replication of Trypanosoma cruzi; T. cruzi beta-gal in NIH3T3, luminescence, 90 h; inhibition, % (test concentration not listed); hit rate 1.4% among 300,000;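 active = mean inhibition across valid replicates above about 55%, limit read from the data; inconclusive = mean below that limit but half or more replicates reach it; inactive = mean below it, under half of replicates reach it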;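 note: signal also drops with host cell toxicity which is not excluded here; 0% = plate median of DMSO wells and 100% = zero luminescence signal; higher percent means less beta-gal luminescence so fewer parasites; stock transfer was 50 nL into about 50 µL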
Ecoli rRNA inh – inhibits bacterial ribosomal RNA function over humanized ribosomes; E. coli WT GFP vs humanized-ribosome RFP mutants, fluorescence, 24 h; active compounds read low; DMSO median 0, no signal -100; GFP signal change (wild-type ribosome), % (test concentration not listed); hit rate 1.6% among 350,000;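 active = significant combined selectivity score with lowered wild-type GFP, culture density cut under 30%, mutant RFP and density less affected; inactive = any of these conditions unmet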; note: one replicate is shown; some compounds called inactive have numbers as strong as hits
Vif TR-FRET – HIV-1 Vif–A3G interaction blockers – biochemical, TR-FRET, GST-Vif 1-94, biotin-A3G peptide, dose response retest, primary screen (AID 1117319); one-dose inhibition, %; IC50 in µM for titrated hits; hit rate 0.57% among 260,000; TR-FRET GST-Vif / biotin-A3G peptide binding; higher % means a stronger effect; test concentration not given here; strong numbers were not always called active;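 active = above the screen mean plus three standard deviations and confirmed in dose response; inconclusive = results disagree or hit not tested in dose response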;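 note: Vif residues 1-94 fused to GST binding biotinylated APOBEC3G peptide 110-148; 0% = full assay without inhibitor and 100% = GST in place of GST-Vif; retest series ran down from 100 µM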
Beta cell apopt – blocks beta cell apoptosis; AID 435005; hit rate 0.8% among 300,000; INS-1E cytokine-induced death, ATP luminescence, 48 h; percent of positive-control rescue, neutral wells zero; protection from apoptosis, % (test concentration not listed);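 active = all replicates at 75% or more, or half of them and the mean; inconclusive = half reach 75% but not the mean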;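 note: 0% = cytokine-treated negative control wells and 100% = positive control rescue; higher means more ATP so stronger rescue from cytokine killing; wells of about 40 µL received 100 nL stock; the first replicate is given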
A1 inh – inhibitors of the anti-apoptotic protein A1, read as caspase activation | MEF A1-2A-BIM cells, Caspase-Glo 3/7 luminescence, 3 h; percent of clofoctol response, vehicle zero | hit rate 0.066% among 330,000 | caspase activation, % (concentration not given with the values);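 active = over half of replicate activation scores above 10%, or exactly half above 10 with the replicate mean above 10; inconclusive = replicate mean below 10 yet half the replicates above 10; inactive = over half of replicates below 10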;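 note: wells of about 30 µL received 50 nL stock; many hits fall short of the cut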
Calb FLC – C. albicans growth modulation with fluconazole; C. albicans CaCi-2 (fluconazole-resistant clinical isolate) + fluconazole, Alamar Blue growth, 48 h; growth inhibition, % (test concentration not listed); hit rate 0.57% among 300,000;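 active = most replicates above 75%; inconclusive = exactly half above 75%; inactive = most below 75%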;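 note: all wells also contain fluconazole at 8 µg/ml as a sub-toxic cotreatment; 0% = median of DMSO wells and 100% = median of geldanamycin control wells; wells of about 8 µL received 7.5 nL stock; the first replicate is given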
RanGTP-Impb inh – disruptors of Ran-importin-beta complex formation – biochemical, FRET, CFP-Ran, YFP-importin-beta, homogeneous, primary screen; cell-free CFP-Ran/YFP-importin-beta FRET ratio; inhibition, % (no concentration beside the values); hit rate 1.1% among 300,000; AID 2216;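 active = most replicates above 15%; inconclusive = exactly half above 15%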;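 note: 0% = DMSO wells and 100% = Ran loaded with GDP instead of GTP; wells of about 40 µL received 100 nL stock; the first replicate is given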
AF4-AF9 inh – blocks AF4 peptide binding to human AF9; P42568; AlphaScreen, biotin-AF4 peptide binding to FLAG-AF9; inhibition, % at 10 µM; hit rate 0.47% among 350,000; AID 651704;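 active = every replicate reaching a set inhibition limit, whatever the replicate mean, cut at about 25% in these data; inconclusive = mean inhibition reaches that limit but some replicates miss it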;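 note: 0% = plate neutral control median and 100% = total signal loss; the record names both 10 and 1 µM as test concentration; the first replicate is given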
Target sequence (P42568 whole entry, looked up): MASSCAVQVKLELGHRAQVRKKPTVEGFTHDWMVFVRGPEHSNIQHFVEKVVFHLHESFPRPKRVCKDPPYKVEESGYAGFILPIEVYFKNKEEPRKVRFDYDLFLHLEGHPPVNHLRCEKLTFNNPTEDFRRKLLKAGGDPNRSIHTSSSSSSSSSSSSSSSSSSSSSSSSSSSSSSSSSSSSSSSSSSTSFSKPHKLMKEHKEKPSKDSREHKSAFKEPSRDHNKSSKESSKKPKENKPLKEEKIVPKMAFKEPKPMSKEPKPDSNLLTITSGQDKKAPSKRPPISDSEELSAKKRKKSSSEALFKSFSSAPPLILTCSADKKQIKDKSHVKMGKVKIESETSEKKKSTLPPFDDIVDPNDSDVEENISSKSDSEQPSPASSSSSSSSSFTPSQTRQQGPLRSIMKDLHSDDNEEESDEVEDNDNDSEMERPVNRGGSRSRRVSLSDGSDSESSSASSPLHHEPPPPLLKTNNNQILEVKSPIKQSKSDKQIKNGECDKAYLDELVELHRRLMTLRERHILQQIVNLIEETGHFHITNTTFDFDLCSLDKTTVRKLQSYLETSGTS
Ecoli rRNA inh OD600 – recorded beside Ecoli rRNA inh, whose call it bears; OD600 change, %; measured here: OD600 growth;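 optical density of the mix in the first replicate; 0 = DMSO median and -100 = no signal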
Ecoli rRNA inh RFP – second read-out of Ecoli rRNA inh, no call of its own (marks repeat the call); RFP signal change, %; measured here: RFP humanized mutant strains;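 first replicate; 0 = DMSO median and -100 = no signal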
The depositor's hits bear a star; ? = inconclusive; / = no result given. These rows are one share of the data (hit frequency here may not be typical).

SMILES	RanGTP-Impb inh	Ecoli rRNA inh RFP	Vif TR-FRET	T cruzi repl	A1 inh	Beta cell apopt	Ecoli rRNA inh OD600	Ecoli rRNA inh	AF4-AF9 inh	Calb FLC
Cc1ccc(-c2c[n+](CC(=O)c3ccc(Br)cc3)c3n2CCCCC3)cc1	?	-15	/	74*	-0.4	57	-79	-51	-1.0	24
CNC(=O)CN1C(=O)NC2(CCc3ccccc3C2)C1=O (stereo unspecified)	-2.2	-5.3	8%	-21	1.5	-6	-8	3	-2.6	0
COc1ccc(N(C(=O)C2COc3ccccc3O2)C(C(=O)NC2CCCCC2)c2ccccc2)cc1OC (stereo unspecified)	-2.7	/	8%	36	-0.4	-4	/	/	/	40
CCOC(=O)C1C(=O)OC2(CCCCC2)C1C(=O)OCC (stereo unspecified)	5.8	-2.5	-2%	8	-0.4	3	3	5	-33	2
Cc1ccc(OCC(=O)NCCN2CCCC2)cc1	5.9	/	2%	-3	1.1	2	/	/	/	-7
O=C(c1ccc2c(c1)OCO2)N(c1ccccc1)C1C=CS(=O)(=O)C1 (stereo unspecified)	-0.6	/	5%	-21	0.3	-6	/	/	/	-2
COc1ccc(Cl)cc1C(=O)Nc1nc(C)cc(C)n1	1.6	0.0	/	15	0.4	/	5	5	0.5	5
CCCCn1c(N)c(N(CCOC)C(=O)COC(=O)Cc2cccc(OC)c2)c(=O)[nH]c1=O	-0.9	2.1	-1%	-5	-0.1	-10	16	11	0.1	-1

Following part:
SMILES	RanGTP-Impb inh	Ecoli rRNA inh RFP	Vif TR-FRET	T cruzi repl	A1 inh	Beta cell apopt	Ecoli rRNA inh OD600	Ecoli rRNA inh	AF4-AF9 inh	Calb FLC
O=C(CSc1nccc(-c2cccs2)n1)Nc1ccccc1	-4.4	-0.2	-1%	/	0.3	-2	9	4	1.3	-18
N#Cc1cc([N+](=O)[O-])ccc1NC(=O)COC(=O)C1CC2CCCC(C1)C2=O (stereo unspecified)	3.4	4.0	-2%	-14	-0.4	4	11	7	0.6	-1
CCNC(=O)COC(=O)c1cc(-c2ccccc2)nn1-c1ccccc1	-0.1	-3.2	11%	-4	2.3	1	-9	-12	0.7	-5
COc1ccc(CC(=O)NCC(=O)NCc2cc(=O)n(C)c(=O)n2C)cc1	-11	3.4	1%	-8	0.1	0	6	20	1.6	3
Nc1ccc2nc(-c3ccc(Cl)cc3)[nH]c2c1	6.1	-3.6*	5%	-35	-8.8	/	2.7*	-17*	?	4
CCN1CCN(c2nc3c(C)cccn3c(=O)c2/C=C(\C#N)S(=O)(=O)c2ccc(Cl)cc2)CC1	-23	33	/	32	-0.1	-15	4	19	30*	-2
NC(CSS(=O)(=O)O)=NCCC12CC3CC(CC(O)(C3)C1)C2	-2.4	-8.7	/	-1	-0.2	-2	-36	-11	-9.2	-30
Cn1c(Cc2ccccc2)nnc1SCC(=O)N1CCCCC1	3.7	/	7%	-6	-0.1	-7	/	/	/	20

Gathered by group: those above containing a Cl atom.
SMILES	RanGTP-Impb inh	Ecoli rRNA inh RFP	Vif TR-FRET	T cruzi repl	A1 inh	Beta cell apopt	Ecoli rRNA inh OD600	Ecoli rRNA inh	AF4-AF9 inh	Calb FLC
COc1ccc(Cl)cc1C(=O)Nc1nc(C)cc(C)n1	1.6	0.0	/	15	0.4	/	5	5	0.5	5
Nc1ccc2nc(-c3ccc(Cl)cc3)[nH]c2c1	6.1	-3.6*	5%	-35	-8.8	/	2.7*	-17*	?	4
CCN1CCN(c2nc3c(C)cccn3c(=O)c2/C=C(\C#N)S(=O)(=O)c2ccc(Cl)cc2)CC1	-23	33	/	32	-0.1	-15	4	19	30*	-2

Additional structures follow.
SMILES	RanGTP-Impb inh	Ecoli rRNA inh RFP	Vif TR-FRET	T cruzi repl	A1 inh	Beta cell apopt	Ecoli rRNA inh OD600	Ecoli rRNA inh	AF4-AF9 inh	Calb FLC
CCCCCN(C(=O)CCC(=O)OCC(=O)N1CCCC(C)C1)c1c(N)n(CCCC)c(=O)[nH]c1=O (stereo unspecified)	3.3	1.6	/	1	0.3	-11	7	0	-1.2	0
O=C(NCCc1ccc(F)cc1)c1cc([N+](=O)[O-])ccc1N1CCOCC1	-0.7	-3.6	-4%	4	-0.3	-2	-3	4	1.6	/
Cc1ccc2nc(N(CCN(C)C)C(=O)c3cc(Cl)sc3Cl)sc2c1	-2.9	/	/	49	0.1	3	/	/	/	-36
CC(=O)Nc1nnc(SCC(=O)N2CCc3ccccc32)s1	2.3	-2.0	/	2	-0.8	-2	3	7	1.2	-10
COc1ccc(C2=NN(C(=O)CCC(=O)O)C(c3ccccc3)C2)cc1 (stereo unspecified)	-0.6	0.9	1%	-13	/	/	17	18	-2.3	2
CCc1ccc(N2CC(C(=O)NC3CC3)CC2=O)cc1 (stereo unspecified)	2.9	1.6	-5%	-9	0.1	/	16	9	-3.8	0
Cc1cc(C(=O)Nc2nnc(C(F)(F)F)s2)cs1	5.8	-2.9	4%	6	-5.4	31	4	-3	-5.4	7
Cn1nnnc1Sc1ncnc2scc(-c3cccc4ccccc34)c12	/	-15	/	/	1.1	-2	13	-1	-1.9	/

More entries:
SMILES	RanGTP-Impb inh	Ecoli rRNA inh RFP	Vif TR-FRET	T cruzi repl	A1 inh	Beta cell apopt	Ecoli rRNA inh OD600	Ecoli rRNA inh	AF4-AF9 inh	Calb FLC
CCCn1nc(Oc2nc(NCC)nc(NCC)n2)ccc1=O	-3.4	/	2%	-2	0.1	6	/	/	/	-32
CCOC(=O)CNc1c(-c2ccc(O)cc2)nc2ccccn12	-8.4	/	1%	9	-1.8	-1	/	/	/	4
Cc1cc(C)c(NC(=O)CSc2nncn2-c2cccnc2)c(C)c1	?	-2.2	-1%	11	-0.8	3	2	8	-1.0	0
Cn1c(=O)c2c(nc(N3CCOCC3)n2CCNC2=NCCC2)n(C)c1=O	-1.1	/	-9%	-7	1.1	-2	/	/	/	9
COc1ccc(NC(=O)c2cc(Br)c(Br)s2)cn1	1.3	13	4%	-4	-1.4	0	-50	-27	1.2	24
COc1ccc(S(=O)(=O)N2CCc3ccccc3C2)cc1	1.8	-1.6	4%	-2	-0.3	-2	6	16	0.2	7
COCc1c(Br)c(C)nc(OCC(=O)O)c1C#N	1.5	/	8%	-11	0.8	-2	/	/	/	-8
O=C1NC(c2ccccc2)(C(F)(F)F)SC2=CCCCCN12 (stereo unspecified)	-1.4	/	?	1	-1.1	-3	/	/	/	-8

Following part:
SMILES	RanGTP-Impb inh	Ecoli rRNA inh RFP	Vif TR-FRET	T cruzi repl	A1 inh	Beta cell apopt	Ecoli rRNA inh OD600	Ecoli rRNA inh	AF4-AF9 inh	Calb FLC
CCOc1cc(C2NC(=O)NC2=O)ccc1O (stereo unspecified)	-1.6	2.2	/	-6	0.3	0	10	13	-4.3	-19
COc1ccccc1N1C(=O)C2C(C(=O)c3ccccc3)=NN(c3ccccc3OC)C2C1=O (stereo unspecified)	-47	2.7	/	1	-0.3	1	-3	5	/	9
Cc1ccc(C(=O)N/C(=C/c2ccco2)C(=O)NCc2ccco2)cc1	6.8	-0.5	16%	?	1.4	6	1	7	1.0	26
CC(=O)NC1C(OCc2ccccc2)OC2COC(C)(C)OC2C1O (stereo unspecified)	-1.0	-1.6	/	7	0.3	-3	2	5	5.9	0
COc1ccc(S(=O)(=O)N2CCOCC2)cc1NC(=O)C1COc2ccccc2O1 (stereo unspecified)	-0.6	1.2	2%	-2	-0.4	/	-15	-16	-15	-2
COCCN(C(=O)CCC(=O)Nc1ccccn1)C(C(=O)NC(C)C)c1ccc(Cl)cc1 (stereo unspecified)	-1.9	1.8	/	-5	-0.3	-6	2	6	-1.1	9
CCOc1ccc(CN2CCNC(=O)C2CC(=O)NCC2CCOCC2)cc1 (stereo unspecified)	1.5	-1.3	/	-1	0.8	-5	13	4	-0.2	3
CCCCc1c(C)nc2c(OC)cccc2c1SCC(=O)O	2.8	3.2	/	-4	-0.4	1	-4	1	-9.5	0

The listing continues.
SMILES	RanGTP-Impb inh	Ecoli rRNA inh RFP	Vif TR-FRET	T cruzi repl	A1 inh	Beta cell apopt	Ecoli rRNA inh OD600	Ecoli rRNA inh	AF4-AF9 inh	Calb FLC
CCn1c(SCC(=O)NC(C)(C)C)nnc1-c1ccncc1	-1.8	-5.8	7%	-16	-0.1	-1	15	8	-1.1	7
O=C(COc1ccc(F)cc1)N1CCc2ccccc2C1	-1.8	-0.4	/	-8	-0.5	-4	-2	-12	-5.5	1
COc1ccc(NC(=O)C(c2ccc(OC)cc2)N(C)C(=O)Cc2cccs2)cc1 (stereo unspecified)	-4.3	/	3%	4	-1.1	0	/	/	/	18
O=C(NCc1ccc2c(c1)OCO2)C1CCC(=O)N1C1CCCC1 (stereo unspecified)	-5.0	-1.0	-7%	-4	-0.1	-2	-1	6	1.7	-1
CC(C)c1ccc(-c2nc3ccccc3s2)cc1	2.6	-3.1*	9%	-5	-8.4	21	3.8*	-16*	-4.6	1
CC(C)CC(=O)c1c[nH]c(C(=O)NCC2CCCO2)c1 (stereo unspecified)	4.0	/	26%	-14	-0.6	-6	/	/	/	-4
O=c1c2ccccc2[nH]c2ccc(F)cc12	116*	-2.4	1%	7	-0.8	9	-4	3	-5.4	-22
CCN(CC)c1ccc2c(c1)CCCN2	-4.2	/	1.2µM*	?	-0.1	4	/	/	/	0

More records:
SMILES	RanGTP-Impb inh	Ecoli rRNA inh RFP	Vif TR-FRET	T cruzi repl	A1 inh	Beta cell apopt	Ecoli rRNA inh OD600	Ecoli rRNA inh	AF4-AF9 inh	Calb FLC
CC(Oc1ccc(Br)cc1Cl)C(=O)Nc1ccncc1 (stereo unspecified)	0.5	-15	/	-18	-0.5	/	-68	-38	0.2	6
Cc1nnc(NC(=O)CSCc2ccccc2)s1	2.4	2.5	-1%	-4	0.0	6	7	4	13	-7
CCc1nnc(NC(=O)CSc2nnc(-c3ccc(NS(=O)(=O)c4ccccc4)cc3)o2)s1	1.7	18	6%	-5	1.4	/	-8	-16	7.9	-8
COc1ccc(CCN(C(=O)/C=C/C(=O)O)C2CC(=O)N(c3ccccc3)C2=O)cc1 (stereo unspecified)	1.9	-0.2	/	-3	-0.3	-1	5	5	0.1	-14
CCOc1cc(/C=N/NC(=O)C2CCCC2)ccc1O	4.8	-0.6	6%	-13	0.2	-6	-1	1	-0.9	-3
CC(OC(=O)CC1CCCCC1)C(=O)Nc1cccc(C#N)c1 (stereo unspecified)	3.5	-0.8	2%	0	0.3	1	2	0	-11	-10
CCCCOc1ccc(C(=O)Nc2ccncc2)cc1	-1.5	/	-5%	-35	-4.8	0	/	/	/	-15
COc1ccc(S(=O)(=O)NCCCCNS(=O)(=O)c2ccc(OC)cc2)cc1	-2.6	/	3%	24	0.3	-8	/	/	/	3
CC(=O)c1ccc(N2CCN(c3ncc(C(F)(F)F)cc3Cl)CC2)cc1	-4.3	/	-41%	41	0.3	31	/	/	/	4
